VACV mCherry inh – vaccinia inhibition (mCherry reporter); Potency, µM (doses to about 36.5 µM), without a hit: at the highest dose activity change, negative = inhibition, usual class: inhibitors; 310,000 compounds, 0.63% hits; Vaccinia virus mCherry reporter infection, fluorescence; about a quarter of the inactives have no number; AID 720579; active = well fitted inhibition curve with a large enough effect; inconclusive = small, poorly fitted or top-dose-only effect; inactive = no such curve, though single readings can be large or run the other way; tested in A549 cells; also: nearly all actives have a fitted effect of over 35% in size; inactives centre near -10
Vaccinia Venus – inhibitors of vaccinia virus (Venus reporter) | Vaccinia virus Venus reporter expression, fluorescence | Potency, µM (highest dose often 36.5 µM), inactives show at the highest dose activity change, negative = inhibition, actives largely listed as inhibitors | 330,000 compounds, 0.46% hits | AID 720580; active means well fitted inhibition curve with a large enough effect; inconclusive means small, poorly fitted or top-dose-only effect; inactive means no such curve, though single readings can be large or run the other way; tested in A549 cells; also: nearly all actives have a fitted effect of over 30% in size; inactives centre near -10
* = called active by the depositor; i = inactive; ? = inconclusive; / = not tested or not shown; & = joins results of further samples; [ ] = dose if it differs, or a comment. % is scaled to controls: 0 for no effect and ±100 for the full control effect; potency is read from the fitted curve at half-maximal effect.

SMILES	VACV mCherry inh	Vaccinia Venus
O=C(CCCC(=O)N(CC(=O)NC1CCCCC1)Cc1ccccc1)Nc1ccccn1	-17.6%	-9.3%
Cc1ccc(C(=O)Nc2nnc(-c3ccco3)o2)cc1	-23.5%	-16.9%
CC(=O)Nc1ccc(/C(C)=N/Nc2nc(Nc3cccc4ccccc34)nc(N3CCOCC3)n2)cc1	-14.3%	?
Oc1ccc(-c2nc3ccc4ccccc4c3c3c2CCC3)cc1O	-24.7%	-28.6%
COc1ccc(Br)cc1C1CC(=O)Nc2c1c(C)nn2-c1nc(C)cc(C)n1 (configuration not stated)	-9.1%	-7.5%
O=C(O)Cn1cnc2c(oc3ccccc32)c1=O	i	-9.3%
CC(C)(C)OC(=O)N1Cc2cc3ccccc3nc2C1CO (configuration not stated)	9.5%	-11.0%
O=C1C2CCCCN2C(=O)N1CCCCN1CCN(c2cccc(C(F)(F)F)c2)CC1 (configuration not stated)	i	-24.4%
Cc1ccc(O)c(C=Nc2cc(C)ccc2O)c1	i	-19.3%
CCOC(=O)CC1CCCCN1Cc1nc(-c2ccc(F)c(OC)c2)oc1C (configuration not stated)	-9.7%	-12.0%
O=C(Cc1c(Cl)cccc1Cl)OCc1ccccn1	-14.0%	-5.8%
CCN(CC)c1ccc(NC(=O)C2CCCN(S(=O)(=O)c3cnc[nH]3)C2)c(C)c1 (configuration not stated)	-5.7%	-8.8%
COCC(=O)NC1CC2CCCC(C1)N2Cc1ccccc1 (configuration not stated)	-12.4%	-5.4%
COC(=O)c1cc(C(=O)OCC(=O)N(C)c2ccccc2)cc([N+](=O)[O-])c1	-8.5%	-13.4%
CC(=O)SCC(=O)N=c1sc2cc(F)ccc2n1C	/	-8.0%
CCc1cc2c(NCCO)ncnc2s1	i	-11.1%
C=CCc1cc(OC)ccc1OCCN(C)Cc1ccccc1	?	-13.3%
O=C(C[C@H]1CC[C@@H](NC(=O)c2ccncc2)[C@@H](CO)O1)NCC1CC1	-3.4%	-6.4%
O=C(O)Cn1ccc2ccccc21	-16.5%	0.9%
COc1cccc(CN2CCOc3ccc(C(O)c4cccnc4)cc3C2)c1 (configuration not stated)	-7.8%	6.3%

Next part; the last 2 above are carried over.
SMILES	VACV mCherry inh	Vaccinia Venus
O=C(O)Cn1ccc2ccccc21	-16.5%	0.9%
COc1cccc(CN2CCOc3ccc(C(O)c4cccnc4)cc3C2)c1 (configuration not stated)	-7.8%	6.3%
COc1ccc(C(=O)Cn2cnc3ccc(Cl)cc3c2=O)cc1F	-10.9%	-3.8%
CC(C(=O)Nc1ccccc1)N1C(=O)c2ccccc2C1=O (configuration not stated)	2.1%	-18.3%
COc1ccc(C2CC(=O)c3cnc(N4CCN(Cc5ccccc5)CC4)nc3C2)cc1 (configuration not stated)	-26.1%	-22.1%
Cc1ccc(-c2nnc(N3CCCCC3)c3ccccc23)cc1S(=O)(=O)N1CCN(C)CC1	?	?
O=C(Cn1c(NCCCO)nc2ccccc21)c1ccc(Br)cc1	-17.6%	-2.1%
Cc1ccc(C(=O)N2CCN(c3ccc([N+](=O)[O-])c(NCc4ccco4)c3)CC2)cc1	/	?
CC(=O)N1CCc2cc(S(=O)(=O)NC(CC(C)C)C(=O)NCCc3ccccc3)ccc21 (configuration not stated)	-2.4%	-2.3%
COc1cc(C)ccc1OCCSc1nc2ccc(NC(=O)c3ccc(C)cc3)cc2s1	-12.5%	-8.6%
CCOC(=O)c1scc(-c2ccccc2)c1S(=O)(=O)Nc1ccc(N(C)C)cc1	-12.8%	-8.5%
O=C(NCCc1ccccc1Cl)C1CCC(=O)N(Cc2ccc(Cl)cc2)C1 (configuration not stated)	-24.4%	-20.4%
O=C(CCc1ccccc1)c1c(O)cc(O)cc1O	-8.3%	-12.0%
Cc1cc(C)n(-c2ccc(Oc3ccccc3)c(S(=O)(=O)O)c2)n1	5.9%	6.9%
C(=NOCc1ccccc1)c1cccnc1	-10.4%	-10.2%
C=CCn1c2ccccc2n2nc(C)c(=O)nc12	-15.4%	-16.5%
O=C([C@@H]1C[C@@H](Sc2nc3ccccc3[nH]2)CN1Cc1c(F)cccc1F)N1CCOCC1	-3.9%	-13.2%
Cc1ccc(S(=O)(=O)N2CCC(C(=O)OCC(=O)N3CC(C)CC(C)C3)CC2)cc1C (configuration not stated)	-24.5%	-2.9%
CCN(CC(=O)Nc1ccc(NC(C)=O)cc1)C(=O)C1(c2ccc(Cl)cc2)CCC1	i	-16.5%
COc1cccc2cc(C(=O)n3ccc(C)n3)c(=O)oc12	/	-3.5%
COc1cccc(NC(=O)CSc2nnc(Cc3cccn3C)n2-c2ccc(F)cc2)c1	-16.0%	-10.1%
COc1cc(OC)cc(C(=O)N[C@H](C(=O)Nc2ccc(NC(C)=O)cc2)C(C)C)c1	-6.3%	-10.8%

Quoted from the listing.
Entry for COc1cccc(NC(=O)CSc2nnc(Cc3cccn3C)n2-c2ccc(F)cc2)c1 in Vaccinia Venus: -10.1%
Entry for C=CCn1c2ccccc2n2nc(C)c(=O)nc12 in VACV mCherry inh: -15.4%
Entry for Cc1cc(C)n(-c2ccc(Oc3ccccc3)c(S(=O)(=O)O)c2)n1 in VACV mCherry inh: 5.9%
Entry for CC(C(=O)Nc1ccccc1)N1C(=O)c2ccccc2C1=O (configuration not stated) in Vaccinia Venus: -18.3%
Entry for CCOC(=O)c1scc(-c2ccccc2)c1S(=O)(=O)Nc1ccc(N(C)C)cc1 in VACV mCherry inh: -12.8%
Entry for CCN(CC(=O)Nc1ccc(NC(C)=O)cc1)C(=O)C1(c2ccc(Cl)cc2)CCC1 in Vaccinia Venus: -16.5%

The listing continues:
SMILES	VACV mCherry inh	Vaccinia Venus
COc1ccc(-n2c(SCC(=O)Nc3ccc(Br)cc3)nc(O)cc2=O)cc1	i	-1.8%
CC(C)CC(=O)NN1CCCCC1	/	-8.5%
N#CC1=C(c2ccccc2)/C(=C/c2ccccc2)OC1=O	i	-1.4%
O=C(O)C1CCCN1S(=O)(=O)c1ccc(Cl)c(Cl)c1 (configuration not stated)	?	0.7%
Cc1cccc(C)c1NS(=O)(=O)c1ccc2c(c1)NC(=O)CO2	-14.6%	-16.7%
CCNC(=O)c1ccccc1SCc1ccccc1	-23.8%	-3.5%
CC(=O)N1CCC(C(=O)Nc2ccc(S(=O)(=O)N3CCC(C)CC3)cc2)CC1	-15.3%	-17.5%
COc1ccc(Br)cc1/C=C/C(=O)c1ccc(NC(C)=O)cc1	4.47µM*	5.62µM*
CCCCCC(=O)N1C[C@H](n2cc(-c3ccc(F)cc3)nn2)[C@@H](O)C[C@@H]1c1ccc(Cl)cc1	-17.8%	?
O=C(COc1ccc2c3c(c(=O)oc2c1)CCCC3)N1C[C@H]2C[C@@H](C1)c1cccc(=O)n1C2	-10.5%	-10.3%
COc1ccc(/C=N\NC(=O)c2ccc(-c3ccccc3)cc2)cc1COC(C)=O	-23.7%	-17.6%
Cc1ccc(-n2c(=O)[nH]c3ncccc3c2=O)cc1	i	-3.2%
CC(/C=C/c1ccccc1)=N\NC(=O)CSc1ccccn1	-19.0%	-16.8%
OCc1nc2ccccc2n1CCCOc1ccc(Br)cc1	/	-25.1%
CC(=O)Oc1ccc(C(=O)Nc2cc(C)ccc2NC(=O)COc2ccccc2)cc1	-19.8%	-7.3%
COC(=O)Cc1c(O)ccn(CCc2c[nH]c3ccc(OC)cc23)c1=O	i	5.1%
CC(=O)Nc1ccc(NC(=S)NC(=O)/C=C/c2ccc(Cl)cc2)cc1	i	-1.8%
CCOC(=O)c1cc(-c2ccc(OC)cc2)n(CCC(=O)NCc2ccccc2OC)c1C	-15.8%	-8.4%
COc1ccc(Nc2nc(C)nc3c2nnn3Cc2ccccc2)cc1OC	/	?
COc1ccc(CC(=O)N2CCN(C)CC2)cc1	-6.9%	-16.0%
CCOc1ccc(Br)cc1S(=O)(=O)Nc1ccc(NC(=O)c2ccccc2C)cc1	i	1.8%
O=C(Nc1ccnn1C1CCN(Cc2ccccc2OCCO)CC1)c1cccc(F)c1	i	-16.8%
CC(C)(C)c1ccc(SCCc2ccncc2)cc1	-8.8%	-19.7%
CCOC(=O)Cc1csc(SCC(=O)Nc2nccs2)n1	i	-12.5%
Cc1ccc(-n2nc(C)c(Sc3ccccc3[N+](=O)[O-])c2N)cc1	i	-9.8%
CC1O[C@H](OC2C(COC3OC(CO)C(O)[C@H](O)C3O)OC(OC3CC[C@]4(C)C(CC[C@@]5(C)[C@@H]4C=C[C@]46OC[C@@]7(CCC(C)(C)C[C@H]74)C(O)C[C@@]56C)C3(C)C)C(O)C2O)C(O)C(O)C1O (some centres not stated)	-8.7%	1.0%
CC1Cc2[nH]c(=S)[nH]c(=O)c2C(C(C)C)O1 (configuration not stated)	33.6%[activator]	-0.8%
CCOc1ccc(C(=O)NCC(=O)NNC(=O)CN(C)S(=O)(=O)c2ccc(Cl)cc2)cc1	-1.1%	-24.2%
Cc1ccc(O)c(NC2=C(Cl)C(=O)N(Cc3ccccc3)C2=O)c1	?	-18.9%
NC(=O)CC1NC(=O)c2cc([N+](=O)[O-])cc(I)c2OCCC(C(N)=O)NC(=O)[C@@H]2CCCN2C1=O (some centres not stated)	-19.0%	-22.0%
CCc1ccc(-c2nc(-c3ccncc3)no2)cc1	/	?
Cc1ccc(OCc2nc(-c3ccc(-n4cccc4)cc3)no2)cc1C	?	-15.1%
O=[N+]([O-])c1ccc(NCCNS(=O)(=O)c2ccccc2)c(C(F)(F)F)c1	/	?
O=C(N/N=C/c1cccnc1)c1ccc(NC(=O)c2ccc(Cl)cc2)cc1	2.8%	6.1%
Cc1cc(NC(=O)CCNS(=O)(=O)c2cc(Br)cnc2N)ccc1Br	-5.9%	-29.6%
CCOc1ccc(CC(=O)Nc2nnc3n2CCS3)cc1	-3.3%	2.8%
CCCn1c(=O)c2ccccc2n2c(SCCOc3ccc(Cl)cc3)nnc12	-14.6%	-7.4%
O=C(CN(C(=O)c1csnn1)c1cccc(F)c1)NCc1ccc(F)cc1	-15.9%	-10.8%
CCOC(=O)c1ccc(N2CCN(c3ccc(F)cc3)CC2)c(NC(=O)Nc2cccc(OC)c2)c1	-7.0%&-12.6%	-5.3%&-3.0%
O=C(O)c1ccccc1NS(=O)(=O)c1ccc(N/N=C/c2cccc(O)c2O)c([N+](=O)[O-])c1	i	-16.0%

Retrieved by compound from above:
SMILES	VACV mCherry inh	Vaccinia Venus
O=[N+]([O-])c1ccc(NCCNS(=O)(=O)c2ccccc2)c(C(F)(F)F)c1	/	?
Cc1ccc(O)c(NC2=C(Cl)C(=O)N(Cc3ccccc3)C2=O)c1	?	-18.9%

Profiles from above. Values in the order: VACV mCherry inh, Vaccinia Venus
Entry for `O=C(CCCC(=O)N(CC(=O)NC1CCCCC1)Cc1ccccc1)Nc1ccccn1` → -17.6%, -9.3%
Entry for `CC(C)(C)OC(=O)N1Cc2cc3ccccc3nc2C1CO` (configuration not stated) → 9.5%, -11.0%
Entry for `O=C(COc1ccc2c3c(c(=O)oc2c1)CCCC3)N1C[C@H]2C[C@@H](C1)c1cccc(=O)n1C2` → -10.5%, -10.3%
Entry for `COc1ccc(Br)cc1C1CC(=O)Nc2c1c(C)nn2-c1nc(C)cc(C)n1` (configuration not stated) → -9.1%, -7.5%
Entry for `CC(=O)N1CCC(C(=O)Nc2ccc(S(=O)(=O)N3CCC(C)CC3)cc2)CC1` → -15.3%, -17.5%

(continued)
SMILES	VACV mCherry inh	Vaccinia Venus
CO/N=C(\C)c1ncc(C(F)(F)F)cc1N1CCOCC1	-8.2%	-5.6%
COc1ccc(-c2cc(C(=O)NCc3cccnc3)no2)cc1	-26.1%	-9.8%
COc1ccc(NC(=O)C2CCN(C(=O)c3ccccc3)CC2)c(OC)c1	-14.2%	-10.6%
CN(C(=O)c1ccc(NC(=O)Cc2ccc(NC(=O)C3CCN(S(=O)(=O)c4cccc([N+](=O)[O-])c4)CC3)cc2)cc1)C1CCCC1	-5.7%	-5.7%
Cc1ccc(NC(=O)CSc2nc(N)cc(=O)[nH]2)cc1S(=O)(=O)N1CCCCC1	?	-16.9%
CCNC(=S)N/N=C/c1cn(Cc2ccccc2F)c2ccccc12	?	?
CCOc1cc(C2C(C#N)=C(N)SC(N)=C2C#N)ccc1OCCN1CCOCC1	-1.8%	4.3%
COc1ccccc1Cc1c(-c2cccc(Cl)c2)nc2ccc(Br)cn12	-1.5%	-4.2%
